# NOMO-1 viab: STK33 inhibitor candidate reducing NOMO-1 cell viability; NOMO-1 AML viability, CellTiter-Glo luminescence, 72 h; AID 2330; inhibition, % (no concentration beside the values); 37,000 tested, 7.5% active;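 active means most replicates above 80%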;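 further: wells of about 30 µL received 25 nL stock; 0% = median of vehicle wells and 100% = reference inhibitor level; the first replicate is given; inactives centre near 10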
# * marks the source's active call; other numbers are inactive results. Some of the compounds tested; the hit share may differ from the screen's.
Compound	NOMO-1 viab
C[C@H](CO)N1C[C@H](C)[C@H](CN(C)C(=O)Nc2ccccc2)Oc2ccc(NS(=O)(=O)c3ccc(Cl)cc3)cc2CC1=O	15.9
Cc1ccc(S(=O)(=O)Nc2ccc3c(c2)C(=O)N([C@@H](C)CO)C[C@H](C)[C@@H](CN(C)S(=O)(=O)c2ccccc2)O3)cc1	12.9
C[C@H](CO)N1C[C@H](C)[C@H](CN(C)S(=O)(=O)c2ccc(F)cc2)Oc2ccc(NS(=O)(=O)c3cn(C)cn3)cc2C1=O	-22.6
O=C1C=C(NC2CCCC2)CC(c2ccccc2)C1 (stereo unspecified)	110.6*
COc1ccc(Cl)cc1NC(=O)Cn1c(=O)oc2ccccc21	21.0
COc1ccc(NC(=O)Nc2cccc3c2O[C@@H](CN(C)S(=O)(=O)c2ccc(C)cc2)[C@@H](C)CN([C@H](C)CO)C3=O)cc1	10.5
C[C@@H]1CN([C@H](C)CO)C(=O)c2cc(NC(=O)Nc3ccc(F)cc3)ccc2O[C@H]1CN(C)Cc1ccc(Cl)c(Cl)c1	15.0
COc1ccc(S(=O)(=O)Nc2ccc3c(c2)C(=O)N([C@@H](C)CO)C[C@@H](C)[C@H](CN(C)S(=O)(=O)c2cn(C)cn2)O3)cc1	9.8

# Some values from above.
# In NOMO-1 viab, COc1ccc(Cl)cc1NC(=O)Cn1c(=O)oc2ccccc21 has the entry 21.0
# In NOMO-1 viab, C[C@H](CO)N1C[C@H](C)[C@H](CN(C)S(=O)(=O)c2ccc(F)cc2)Oc2ccc(NS(=O)(=O)c3cn(C)cn3)cc2C1=O has the entry -22.6
# In NOMO-1 viab, O=C1C=C(NC2CCCC2)CC(c2ccccc2)C1 (stereo unspecified) has the entry 110.6*
# In NOMO-1 viab, Cc1ccc(S(=O)(=O)Nc2ccc3c(c2)C(=O)N([C@@H](C)CO)C[C@H](C)[C@@H](CN(C)S(=O)(=O)c2ccccc2)O3)cc1 has the entry 12.9
# In NOMO-1 viab, COc1ccc(S(=O)(=O)Nc2ccc3c(c2)C(=O)N([C@@H](C)CO)C[C@@H](C)[C@H](CN(C)S(=O)(=O)c2cn(C)cn2)O3)cc1 has the entry 9.8
# In NOMO-1 viab, C[C@H](CO)N1C[C@H](C)[C@H](CN(C)C(=O)Nc2ccccc2)Oc2ccc(NS(=O)(=O)c3ccc(Cl)cc3)cc2CC1=O has the entry 15.9

# Carrying on.
Compound	NOMO-1 viab
C[C@H]1CN([C@@H](C)CO)C(=O)c2cc(NS(C)(=O)=O)ccc2O[C@@H]1CN(C)Cc1ccc(-c2ccccc2)cc1	5.5
Cc1nc(SCC(=O)NCc2ccco2)c2c(C)c(C)sc2n1	28.0
CC(C)NC(=O)N(C)C[C@H]1Oc2c(NS(=O)(=O)c3ccc(Cl)cc3)cccc2C(=O)N([C@@H](C)CO)C[C@H]1C	12.1
O=S1(=O)N=C(N(CCO)c2ccc(Cl)cc2)c2ccccc21	-1.9
Cc1cc(Cl)ccc1NC(=O)CN(c1ccc(Cl)c(Cl)c1)S(C)(=O)=O	16.0
CC(C)NC(=O)N(C)C[C@@H]1Oc2ccc(NS(=O)(=O)c3cccs3)cc2CC(=O)N([C@@H](C)CO)C[C@@H]1C	-8.2
CCCc1ccc(Oc2ccc(NC(=O)C3CC3C(=O)O)cn2)c(OC)c1 (stereo unspecified)	-10.0
C[C@H]1CN([C@@H](C)CO)C(=O)c2cccc(NC(=O)C3CCOCC3)c2O[C@@H]1CN(C)Cc1ccc(C(=O)Nc2ccccc2N)cc1	24.5
CC1(C)Cc2c(sc3ncn4nc(COc5ccc(Cl)cc5)nc4c23)C(C)(C)N1	142.2*
CC(CCc1ccccc1)N=c1c([N+](=O)[O-])nn(-c2ccccc2)n1O (stereo unspecified)	18.2
COc1ccc(S(=O)(=O)Nc2cccc3c2O[C@@H](CN(C)C(=O)NC2CCCCC2)[C@H](C)CN([C@H](C)CO)C3=O)cc1	10.5
Cc1ccc(S(=O)(=O)N(C)C[C@H]2Oc3c(NS(=O)(=O)c4c(C)noc4C)cccc3C(=O)N([C@H](C)CO)C[C@H]2C)cc1	30.8
COc1ccc(CN(C)C[C@@H]2Oc3ccc(NC(=O)C4CCCCC4)cc3C(=O)N([C@H](C)CO)C[C@H]2C)cc1	-2.0
C[C@H]1CN([C@@H](C)CO)C(=O)Cc2cc(NC(=O)C3CC3)ccc2O[C@H]1CN(C)S(=O)(=O)c1ccccc1	-29.8
Cc1ccc(S(=O)(=O)N(C)C[C@H]2Oc3c(NC(=O)Nc4ccccc4)cccc3C(=O)N([C@@H](C)CO)C[C@H]2C)cc1	26.3
COc1ccc(S(=O)(=O)Nc2ccc3c(c2)C(=O)N([C@@H](C)CO)C[C@@H](C)[C@H](CN(C)Cc2ccc4c(c2)OCO4)O3)cc1	-17.8
Cc1noc(C)c1NC(=O)Nc1ccc2c(c1)C(=O)N([C@H](C)CO)C[C@@H](C)[C@H](CN(C)S(=O)(=O)c1ccc(Cl)cc1)O2	-0.4
Cc1ccc(S(=O)(=O)Nc2ccc3c(c2)C(=O)N([C@H](C)CO)C[C@@H](C)[C@H](CN(C)S(=O)(=O)c2ccc(F)cc2)O3)cc1	3.7
COC(=O)c1ccccc1NC(=O)C(C)NS(=O)(=O)c1ccc(Br)cc1 (stereo unspecified)	-1.8
C[C@@H]1CN([C@@H](C)CO)C(=O)c2cc(NC(=O)CCCCCC(=O)Nc3ccccc3N)ccc2O[C@@H]1CN(C)S(=O)(=O)c1ccccc1	49.4
COc1ccc(CN(C)C[C@@H]2Oc3ccc(NC(=O)Cn4cnnn4)cc3C(=O)N([C@@H](C)CO)C[C@@H]2C)cc1	20.3
CC(C)NC(=O)N(C)C[C@@H]1Oc2c(NC(=O)C3CC3)cccc2C(=O)N([C@@H](C)CO)C[C@@H]1C	-11.6
COc1cc(NC(=O)Cn2cnc3c2c(=O)n(C)c(=O)n3C)cc(OC)c1OC	-15.8
Cc1noc(C)c1S(=O)(=O)Nc1ccc2c(c1)C(=O)N([C@@H](C)CO)C[C@@H](C)[C@@H](CN(C)S(=O)(=O)c1cn(C)cn1)O2	-4.9
CCn1c(SCC(=O)Nc2c(F)cc(F)cc2Br)nnc1-c1ccccc1F	9.3
C[C@H]1CN([C@@H](C)CO)C(=O)c2cc(NC(=O)Nc3ccccc3)ccc2O[C@H]1CN(C)Cc1ccc(C(F)(F)F)cc1	14.3
CCN(CC(=O)O)S(=O)(=O)c1ccc(Br)cc1	-25.0
COc1ccc(C)cc1NC(=O)CN(c1cc(Cl)ccc1OC)S(C)(=O)=O	-6.0
O=C(Nc1ccccc1C(=O)Nc1ccccc1C(=O)NCc1ccco1)c1ccco1	43.4
C[C@@H]1CCCCO[C@H](CN(C)C(=O)c2ccncc2)[C@@H](C)CN([C@H](C)CO)C(=O)c2cc(N(C)C)ccc2O1	4.4
Cc1ccc(-n2c(SCC(=O)Nc3ccc(F)c(F)c3)nnc2-c2cnccn2)cc1	6.5
CN1C(N)=NC(=O)/C1=C/c1cccnc1	34.3
COc1ccc(-c2csc3ncn(CC(=O)Nc4ccccc4)c(=O)c23)cc1	40.2
CC(Sc1nc(-c2ccccc2)c(C#N)c(=O)[nH]1)C(=O)Nc1cccc(Cl)c1 (stereo unspecified)	21.7
Cc1cc(C)c(NC(=O)CN(c2cccc(Cl)c2C)S(C)(=O)=O)c(C)c1	-3.5
CNC[C@@H]1Oc2c(NC(=O)C3CCCCC3)cccc2C(=O)N([C@H](C)CO)C[C@H]1C	-13.7
O=C(Oc1ccc(C2SCCS2)cc1)c1ccccc1Cl	6.0
CC(=O)n1c2ccccc2c2cc(Br)ccc21	32.3
CC(C)NC(=O)Nc1ccc2c(c1)C(=O)N([C@@H](C)CO)C[C@@H](C)[C@H](CN(C)S(=O)(=O)c1cccs1)O2	6.0
COc1ccccc1NC(=O)CSC1CC(=O)N(c2ccc(I)cc2)C1=O (stereo unspecified)	-13.5
Cc1ccc(S(=O)(=O)Nc2cccc3c2O[C@H](CN(C)S(=O)(=O)c2cccs2)[C@@H](C)CN([C@@H](C)CO)C3=O)cc1	8.0
COC(=O)c1cc(COc2ccc3c(c2)oc(=O)c2ccccc23)c(C)o1	30.0
C[C@H]1CN([C@@H](C)CO)C(=O)c2cccc(NC(=O)Nc3ccc(F)cc3)c2O[C@@H]1CN(C)S(=O)(=O)c1ccc(F)cc1	11.6
C[C@@H]1CCCCO[C@H](CN(C)C(=O)Nc2cccc3ccccc23)[C@@H](C)CN([C@H](C)CO)C(=O)c2cc(NC(=O)Nc3ccc4c(c3)OCO4)ccc2O1	18.9
C[C@@H]1CN([C@@H](C)CO)C(=O)c2cccc(NC(=O)Nc3ccc4c(c3)OCO4)c2O[C@H]1CN(C)Cc1ccc(Oc2ccccc2)cc1	95.3*
COc1ccc(CCNC(=O)c2ccc(-c3cccc(C(F)(F)F)c3)o2)cc1OC	20.3
Cc1nc(SCC(=O)Nc2ccc(C(=O)O)cc2)[nH]c(=O)c1C	24.5
CC(C)NC(=O)N(C)C[C@@H]1OCCCC[C@@H](C)Oc2ccc(NC(=O)Nc3cccc4ccccc34)cc2C(=O)N([C@H](C)CO)C[C@@H]1C	28.7
Cc1noc(C)c1S(=O)(=O)Nc1ccc2c(c1)CC(=O)N([C@H](C)CO)C[C@@H](C)[C@@H](CN(C)Cc1ccc(C(=O)O)cc1)O2	-16.8
CCc1ccccc1NC(=O)COc1ccc2c(=O)c(Oc3ccccc3Cl)coc2c1	5.7
COC(=O)c1ccccc1N(C)S(C)(=O)=O	-2.8
COc1ccc(S(=O)(=O)Nc2ccc3c(c2)CC(=O)N([C@H](C)CO)C[C@H](C)[C@H](CN(C)S(C)(=O)=O)O3)cc1	5.0
COc1ccccc1NC(=O)CCSc1nc(C)cc(C)n1	-10.6
Cc1ccc(S(=O)(=O)N(C)C[C@@H]2OCCCC[C@@H](C)Oc3ccc(NC(=O)Nc4c(C)noc4C)cc3C(=O)N([C@H](C)CO)C[C@@H]2C)cc1	-10.8
C[C@H](CO)N1C[C@H](C)[C@H](CN(C)C(=O)Nc2ccc(C(F)(F)F)cc2)Oc2ccc(NC(=O)c3ccncc3)cc2CC1=O	11.8
COc1ccc(-c2nnc3c4ccccc4c(C)nn23)cc1S(=O)(=O)N1CCOCC1	27.0

# The results go on.
Compound	NOMO-1 viab
CC(=O)O[C@H]1CC[C@@]2(C)C(C[C@@H](OC(C)=O)[C@@]3(C)C4=CC(=O)O[C@@H](c5ccoc5)[C@]4(C)CCC23)C1(C)C (stereo partly specified)	27.8
CNC[C@H]1Oc2ccc(NS(=O)(=O)c3cccs3)cc2C(=O)N([C@@H](C)CO)C[C@H]1C	-30.7
COc1ccc(NC(=O)N(C)C[C@H]2Oc3c(NC(=O)C4CCCCC4)cccc3C(=O)N([C@@H](C)CO)C[C@@H]2C)cc1	6.5
Cc1ccc(NC(=O)CNC(=O)c2ccco2)cc1	-4.8
O=C(COc1ccc([N+](=O)[O-])cc1)Nc1cccc2nsnc12	18.3
Cc1ccc(S(=O)(=O)N(C)C[C@H]2Oc3c(NC(=O)Nc4ccc(C(F)(F)F)cc4)cccc3C(=O)N([C@H](C)CO)C[C@H]2C)cc1	84.5*
C[C@@H]1CN([C@@H](C)CO)C(=O)c2cc(NS(=O)(=O)c3ccccc3)ccc2O[C@@H]1CN(C)C(=O)Nc1ccc2c(c1)OCO2	13.6
COc1ccc(C)cc1Nc1nc(N)nc(-c2oc3ccccc3c2C)n1	25.5
O=C(NC(=S)NCc1cccnc1)c1ccc(-c2cccc(Cl)c2Cl)o1	12.7
COc1cc(C)c(C(=O)Oc2cc(C)c(C(=O)O)c(O)c2C)c(OC)c1C	16.9
C[C@H](CO)N1C[C@H](C)[C@H](CN(C)C(=O)Nc2cccc3ccccc23)Oc2ccc(NC(=O)c3ccncc3)cc2CC1=O	12.6
COc1ccc(/C=C/C(=O)O[C@H]2[C@H](O[C@H]3[C@@H]4C=CO[C@@H](O[C@@H]5O[C@H](CO)[C@@H](O)[C@H](O)[C@H]5O)[C@@H]4[C@@]4(CO)O[C@@H]34)O[C@@H](C)[C@H](O)[C@H]2OC(C)=O)cc1	0.7
COc1ccc(S(=O)(=O)Nc2cccc3c2O[C@H](CN(C)C(=O)Nc2c(C)noc2C)[C@@H](C)CN([C@@H](C)CO)C3=O)cc1	14.6
O=C(c1ccccc1)c1ccc2nc(-c3cccc(NC(=O)C4CCCO4)c3)[nH]c2c1 (stereo unspecified)	100.1*
Cc1noc(C)c1NC(=O)N(C)C[C@@H]1Oc2c(NC(=O)Nc3ccc(C(F)(F)F)cc3)cccc2C(=O)N([C@@H](C)CO)C[C@H]1C	47.1
CNC(=O)COc1ccc(NC(=O)c2ccc(-c3nn(C)c(=O)c4ccccc34)cc2)cc1	23.9
C[C@H](CO)N1C[C@H](C)[C@H](CN(C)C(=O)NC2CCCCC2)Oc2ccc(NC(=O)Cc3cn(C)c4ccccc34)cc2C1=O	15.1
CC1Oc2ccccc2OC1(O)c1ccc(Br)cc1 (stereo unspecified)	106.4*
C[C@H](CO)N1C[C@H](C)[C@@H](CN(C)S(C)(=O)=O)Oc2ccc(N(C)C)cc2C1=O	12.1
C[C@H](CO)N1C[C@H](C)[C@@H](CN(C)C(=O)Nc2ccc3c(c2)OCO3)Oc2c(NS(C)(=O)=O)cccc2C1=O	-2.3
C[C@@H]1CN([C@H](C)CO)C(=O)c2cc(NC(=O)Nc3ccc4c(c3)OCO4)ccc2O[C@@H]1CN(C)Cc1ccc(Cl)c(Cl)c1	-13.0
COc1ccc(S(=O)(=O)Nc2cccc3c2O[C@H](CN(C)Cc2ccccc2)[C@H](C)CN([C@@H](C)CO)C3=O)cc1	41.6
COc1ccc(NC(=O)CSc2nnc(N)s2)cc1Cl	-10.8
COc1ccc(S(=O)(=O)N(C)C[C@H]2Oc3ccc(NC(=O)Nc4ccc(F)cc4)cc3C(=O)N([C@H](C)CO)C[C@H]2C)cc1	18.0
O=C(Nc1sc2c(c1C(=O)NCc1ccco1)CCCC2)c1ccc(F)cc1	37.9
C[C@H]1CN([C@@H](C)CO)C(=O)c2cccc(NC(=O)C3CCCCC3)c2O[C@@H]1CN(C)C(=O)Nc1ccc(C(F)(F)F)cc1	15.4

# Entries from the list above containing a nitro group on carbon (two):
Compound	NOMO-1 viab
CC(CCc1ccccc1)N=c1c([N+](=O)[O-])nn(-c2ccccc2)n1O (stereo unspecified)	18.2
O=C(COc1ccc([N+](=O)[O-])cc1)Nc1cccc2nsnc12	18.3
